Compound activity (PubChem)
Six1-Eya2 blk = qHTS Assay for Inhibitors of the Six1/Eya2 Interaction; Homeobox protein SIX1 (Homo sapiens) + Protein phosphatase EYA2 (Homo sapiens), …; AlphaScreen GST-Six1/His-Eya2 binding, biochemical; stronger effect = lower value; control for the full effect not named in the record; 0.56% of 360,000 active; activity change, % (concentration not given with the values); in the data active = activity change below about -65%; inconclusive = about -30% to -65%; inactive = above about -30%; further: on the % scale 0 is the no-effect control and ±100 the full control effect
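AlphaScreen luminescence read after one hour at 37 °C in darkness. Pin-transferred compounds met GST-Six1 and His-Eya2 protein (5X stock 250 nM/500 nM) plus glutathione donor and Ni-chelate acceptor beads (5X, 50 ug/mL).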
CtBP-E1A blk = qHTS Assay for Inhibitors of the CtBP/E1A Interaction; CtBP / adenovirus E1A interaction (AlphaScreen); AlphaScreen GST-E1A/His-CtBP binding, 1536-well; stronger effect = lower value; control for the full effect not named in the record; activity change, % (no concentration beside the values); 0.49% of 340,000 active; AID 651724, 2012; in the data active means activity change below about -65%; inconclusive means about -30% to -65%; inactive means above about -30%; further: on the % scale 0 is the no-effect control and ±100 the full control effect; compound concentration not given in the record
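In 5 uL wells, 23 nL compound meets equimolar GST-E1A and His-CtBP (5X stock 125 nM each) for 2 h, 37 °C. Beads (5X, 50 ug/mL) then 1 h, 37 °C, dark.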
PINK1 modulator = A Quantitative High throughput Screen to Identify Chemical Modulators of PINK1 Expression. PINK1 immunofluorescence, high-content cytometry, 24 h. Potency, µM (highest dose often 76.6 µM), for the others: at the highest dose activation (PINK1 increase), hits mostly activators. 0.2% of 410,000 active. AID 624263, 2012; active = well fitted activation curve with a large enough effect; inconclusive = small, poorly fitted or top-dose-only effect; inactive = flat fitted curve, though single readings scatter; cell line not stated here;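 further: potency means the concentration at half of the fitted maximal effect; % of control where 0% means no effect; nearly all actives have a fitted effect of over 65% in size; a mitochondrial uncoupler was the plate control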
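Stable cell line treated 24 h with compounds at 5 concentrations (CCCP controls), then fixed and immunostained for PINK1 plus nuclear and cell stains; PINK1 immunofluorescence quantified by laser-scanning microplate cytometry.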
TRPML1 ag = qHTS for Agonists of the Human Mucolipin Transient Receptor Potential 1 (TRPML1). TRPML1-expressing cells, Ca2+ dye fluorescence, FDSS; host cell line not named in the record; reference of the full effect not given here. activation, % (no concentration beside the values). 0.12% of 410,000 active. AID 624414, 2012. Mucolipin-1 (Homo sapiens), Q9GZU1; in the data active = activation above about 50%; inconclusive = about 30% to 50%; inactive = below about 30%; further: 0% is about no effect; the text of the record puts the active cut at 80%
Target sequence (Q9GZU1 whole entry, looked up): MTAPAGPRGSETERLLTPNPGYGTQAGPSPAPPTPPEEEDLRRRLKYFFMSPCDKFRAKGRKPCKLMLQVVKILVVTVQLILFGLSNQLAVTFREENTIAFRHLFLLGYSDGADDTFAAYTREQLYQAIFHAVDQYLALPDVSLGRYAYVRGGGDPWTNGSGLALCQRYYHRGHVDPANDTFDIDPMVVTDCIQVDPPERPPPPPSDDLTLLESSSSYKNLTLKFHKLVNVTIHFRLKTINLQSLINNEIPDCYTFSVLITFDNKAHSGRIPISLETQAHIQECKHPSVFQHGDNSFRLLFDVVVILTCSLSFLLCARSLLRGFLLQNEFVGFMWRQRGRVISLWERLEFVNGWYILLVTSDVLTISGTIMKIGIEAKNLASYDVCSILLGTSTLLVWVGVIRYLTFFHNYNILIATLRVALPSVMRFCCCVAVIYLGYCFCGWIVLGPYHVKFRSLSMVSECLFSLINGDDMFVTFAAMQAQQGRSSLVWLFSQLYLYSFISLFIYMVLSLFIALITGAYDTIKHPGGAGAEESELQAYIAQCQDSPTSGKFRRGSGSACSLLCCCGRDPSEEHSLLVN
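Agonist activity was taken from a 110 s kinetic Ca2+ dye read on the FDSS after pinning compounds onto TRPML1-DL cells. The cells were seeded at 1,500/well with Tet inducer, incubated about 16 h, then dye-loaded at room temperature.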
D2 agonist = Beta-Arrestin HTS for Positive Allosteric Modulators of the Human D2 Dopamine Receptor: Agonists; DiscoveRx PathHunter D2 beta-arrestin, luminescence, 90 min; 100% = 57 uM dopamine signal; 0.084% of 360,000 active; AID 624465, 2012; activation, % (no concentration beside the values); D(2) dopamine receptor (Homo sapiens), P14416; in the data active = activation above about 40%; inconclusive = about 15% to 40%; inactive = below about 15%; further: compound concentration not given in the record; the text of the record calls up to 30% inactive
Target sequence (P14416 whole entry, looked up): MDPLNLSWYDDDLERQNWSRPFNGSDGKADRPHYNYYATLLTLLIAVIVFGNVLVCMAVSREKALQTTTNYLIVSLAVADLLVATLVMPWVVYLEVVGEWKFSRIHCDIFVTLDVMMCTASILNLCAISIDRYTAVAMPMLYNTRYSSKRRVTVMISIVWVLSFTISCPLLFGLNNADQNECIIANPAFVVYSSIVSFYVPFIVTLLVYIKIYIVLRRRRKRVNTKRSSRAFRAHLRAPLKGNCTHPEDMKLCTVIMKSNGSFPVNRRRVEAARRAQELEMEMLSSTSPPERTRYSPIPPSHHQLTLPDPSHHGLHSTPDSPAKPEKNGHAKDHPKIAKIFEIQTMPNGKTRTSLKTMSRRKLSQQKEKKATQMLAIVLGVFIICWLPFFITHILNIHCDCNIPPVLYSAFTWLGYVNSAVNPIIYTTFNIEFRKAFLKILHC
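Agonist mode: compounds alone added to overnight-plated D2 PathHunter cells for 90 min at 37 C, with 57 uM final dopamine (EC100) defining full response. Beta-arrestin recruitment detected by chemiluminescent reagent, read after 1 h at ambient temperature.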
D2 PAM = Beta-Arrestin HTS for Positive Allosteric Modulators of the Human D2 Dopamine Receptor: Potentiators; DiscoveRx D2 beta-arrestin cells, luminescence, 90 min; 100% = 57 uM dopamine signal; potentiation, % (test concentration not listed); 0.23% of 360,000 active; AID 624464, 2012; active = potentiation of 50% or more; inconclusive = 30% to 50%; inactive = 30% or less;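 further: compound concentration not given in the record; tested on top of an EC20 dose of dopamine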
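D2 cells co-treated with compound plus 50 nM dopamine (EC20) for 90 min at 37 deg C to detect potentiation. Beta-arrestin recruitment was read as enzyme-fragment luminescence after 1 h at ambient temperature. Full response was set by 57 uM dopamine.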
* marks the source's active call; other numbers are inactive results; ? = inconclusive; · = no result given; [ ] = another dose, or the depositor's remark.

SMILES	Six1-Eya2 blk	CtBP-E1A blk	PINK1 modulator	TRPML1 ag	D2 agonist	D2 PAM
CCCn1c(SCC(=O)N(C2CCCCC2)C2CCS(=O)(=O)C2)n[nH]c1=O (stereo unspecified)	0	7	1.7%	-0.5	-6.3	-6
Cc1ccc(Nc2nc(C)cs2)cc1	-1	-3	1.2%	0.0	-7.2	-12
S=C(NCc1ccccc1)Nc1ccc(Oc2ccccc2)cc1	-2	·	?	0.2	-0.9	-22
C[C@H](NC(=O)c1nc[nH]c1C(=O)N1CCN(C(=O)OC(C)(C)C)CC1)C(=O)OC(C)(C)C	-1	5	-1.0%	-0.4	-0.8	-7
CCOc1ccc(NS(=O)(=O)c2ccc(NC(=S)NC(=O)C(C)C)cc2)cc1	-3	6	-0.8%	3.5	-7.0	4
O=C1Nc2ccc(Cl)cc2C12OCCCO2	2	5	3.7%	0.3	6.3	-4
Cc1cccc(Cn2c(C)nc3ccc([N+](=O)[O-])cc3c2=O)c1	-9	-11	3.0%	-0.7	14	11
Cc1ccc(S(=O)(=O)N2CCOCC2)cc1C(=O)NCC1CCCO1 (stereo unspecified)	11	-1	0.1%	0.1	-1.4	-10
Cc1cc(C)cc(OC(=O)N2CCOCC2)c1	-2	16	-1.4%	-0.7	-2.7	11
C[C@H](NC(=O)OCc1ccccc1)c1nnc([C@H](C)NC(=O)OCc2ccccc2)o1	-4	·	0.0%	-0.7	6.0	-8

Part of the list above with just CtBP-E1A blk and D2 PAM.
molecule,CtBP-E1A blk,D2 PAM
CCOc1ccc(NS(=O)(=O)c2ccc(NC(=S)NC(=O)C(C)C)cc2)cc1,6,4
O=C1Nc2ccc(Cl)cc2C12OCCCO2,5,-4
Cc1cccc(Cn2c(C)nc3ccc([N+](=O)[O-])cc3c2=O)c1,-11,11
Cc1ccc(S(=O)(=O)N2CCOCC2)cc1C(=O)NCC1CCCO1 (stereo unspecified),-1,-10

New compounds follow
SMILES	Six1-Eya2 blk	CtBP-E1A blk	PINK1 modulator	TRPML1 ag	D2 agonist	D2 PAM
COC(=O)c1cn[nH]c1NC(=S)Nc1ccc(Cl)c(Cl)c1	1	6	14%[38.3 µM]	0.7	-1.9	5
CN(CC(=O)Nc1ccccc1Cl)C(=O)COc1cccc2c1OC(C)(C)C2	0	7	-1.8%	0.9	-4.6	-27
NC(=O)C1CCN(C(=O)c2ccccc2CCc2ccccc2)CC1	3	-7	0.1%	0.6	5.7	-5
O=C(NCc1ccc2c(c1)OCO2)C(C(=O)c1ccccc1)n1cc(Cl)ccc1=O (stereo unspecified)	5	0	0.0%	0.5	0.8	-14
Cc1ccc(S(=O)(=O)C2(C(=O)Nc3cccc(F)c3)CC2)cc1	14	-2	2.0%	-0.2	-7.7	-6
CCN1C(=O)CSC1=NC12CC3CC(CC(C3)C1)C2	10	10	6.0%[38.3 µM]	1.8	4.4	12
O=C(c1ccc([N+](=O)[O-])cc1)N1CCC(n2nnc3cc(F)ccc32)CC1	1	6	1.3%	-0.1	-2.9	0
COc1ccc(Br)cc1C(=O)Nc1ccc(C(=O)O)cc1	5	6	1.5%	0.2	-0.1	-1
CC(C)(C)OC(=O)C[C@@H]1C/C=C\C[C@H](CC(=O)N[C@H](CO)Cc2ccccc2)C(=O)N[C@@H](Cc2c[nH]c3ccccc23)COC1=O	10	20	0.5%	0.0	3.3	4
Cc1nc2ccccc2cc1OCc1ccc(F)cc1	13	13	-0.3%	0.6	1.9	-12

Compound profiles (already shown).
Cc1ccc(S(=O)(=O)C2(C(=O)Nc3cccc(F)c3)CC2)cc1 across the screens: Six1-Eya2 blk = 14; CtBP-E1A blk = -2; PINK1 modulator = 2.0%; TRPML1 ag = -0.2; D2 agonist = -7.7; D2 PAM = -6
Cc1nc2ccccc2cc1OCc1ccc(F)cc1 across the screens: Six1-Eya2 blk = 13; CtBP-E1A blk = 13; PINK1 modulator = -0.3%; TRPML1 ag = 0.6; D2 agonist = 1.9; D2 PAM = -12
COC(=O)c1cn[nH]c1NC(=S)Nc1ccc(Cl)c(Cl)c1 across the screens: Six1-Eya2 blk = 1; CtBP-E1A blk = 6; PINK1 modulator = 14%[38.3 µM]; TRPML1 ag = 0.7; D2 agonist = -1.9; D2 PAM = 5

(listing goes on)
SMILES	Six1-Eya2 blk	CtBP-E1A blk	PINK1 modulator	TRPML1 ag	D2 agonist	D2 PAM
CCn1c(=N)n(CC(=O)c2ccc(Br)s2)c2ccccc21	-1	0	2.0%	·	-4.3	-28
S=C(NCc1ccccc1)N1CCn2cccc2C1c1ccncc1 (stereo unspecified)	2	-1	3.7%	0.1	-2.3	-5
O=C(Cn1cnc2cc([N+](=O)[O-])ccc2c1=O)Nc1cccc(S(=O)(=O)N2CCOCC2)c1	-22	-13	0.3%	-0.3	?	?
O=C(CN1CCCC1=O)NC1CCCc2c1cnn2-c1cc(F)cc(F)c1 (stereo unspecified)	-2	-20	-1.9%	-0.3	-4.1	-4
CN(C)S(=O)(=O)c1ccc(C(=O)Nc2nnc(SCc3ccccc3)s2)cc1	1	-5	3.9%	-0.4	-5.6	-19
C=CCNc1sc(C(=O)c2ccc(Br)s2)c(N)c1C#N	18	0	-0.8%	10	-4.0	-13
CC1=C(C(=O)O)N2C(=O)C(NC(=O)c3ccn(C)n3)C2SC1 (stereo unspecified)	-2	0	0.3%	1.0	-6.0	-8
CCOC(=O)C(NC(=O)c1ccccc1OCC)(Nc1ncccn1)C(F)(F)F (stereo unspecified)	7	-7	-2.4%	2.2	-0.2	-29
Cc1[nH]c(=O)[nH]c(=O)c1CSCC(=O)OCC(=O)c1ccc(Br)cc1	7	·	1.3%	-0.3	-6.8	-13
COC(=O)COc1ccc(C(c2c(C)[nH][nH]c2=O)c2c(C)[nH][nH]c2=O)cc1	-10	-3	-0.1%	-0.2	-0.1	1

Structures listed so far that contain an aryl thioether with sulfur outside any ring (two):
SMILES	Six1-Eya2 blk	CtBP-E1A blk	PINK1 modulator	TRPML1 ag	D2 agonist	D2 PAM
CCCn1c(SCC(=O)N(C2CCCCC2)C2CCS(=O)(=O)C2)n[nH]c1=O (stereo unspecified)	0	7	1.7%	-0.5	-6.3	-6
CN(C)S(=O)(=O)c1ccc(C(=O)Nc2nnc(SCc3ccccc3)s2)cc1	1	-5	3.9%	-0.4	-5.6	-19

The list goes on:
SMILES	Six1-Eya2 blk	CtBP-E1A blk	PINK1 modulator	TRPML1 ag	D2 agonist	D2 PAM
CN(C)C(=O)CCc1ccc2c3c([nH]c2c1)[C@]1(C)[C@@H](C(=O)N2CCCCC2)C[C@H](CC(=O)NCc2cccc(C(F)(F)F)c2)C(=O)N1CC3	-4	-4	2.0%	0.5	0.2	·
CCN(CC)c1ccc(C(=O)NC(=S)Nc2cc(S(=O)(=O)N3CCOCC3)ccc2-n2cncn2)cc1	3	16	11%	-1.1	0.5	-3
Cc1ccc(S(=O)(=O)N(C)c2ccc(OCC(=O)OCc3cccc(Br)c3)cc2)cc1	10	18	0.5%	4.2	6.4	-3
C(=N\Nc1nc2ccccc2[nH]1)/c1cccs1	2	6	0.8%	0.0	-0.5	-8
CCOC(=O)c1c(NC(=O)CSc2nnc3c(Cl)cc(Cl)cn23)sc2c1CCC2	-7	-6	2.2%	0.6	-0.9	-6
CC1(C)CC(=O)c2cc(OCC(=O)N3CCOCC3)ccc2O1	8	7	-0.6%	-0.4	0.9	-2
C[C@@H]1CN([C@@H](C)CO)C(=O)CCCn2nncc2CO[C@H]1CN(C)S(=O)(=O)c1ccc(-c2ccccc2)cc1	-25	-3	-0.4%	0.4	-2.7	4
COc1cccc(CNCc2ccc(SC)cc2)c1OC	-4	7	-0.6%[38.3 µM]	0.2	-1.6	-15
Cc1ccc(Cn2nc(C)c(NC(=O)c3nn(C)cc3Cl)c2C)cc1	0	-11	-1.5%	0.6	2.1	4
CCCCN(CC(O)COc1cccc(C)c1)CC(O)COc1cccc(C)c1 (stereo unspecified)	3	1	-0.2%	-1.3	-3.7	-10
O=S(=O)(c1ccccc1)N1CCN(Cc2ccccc2C(F)(F)F)CC1	5	10	2.0%	0.9	-1.1	-8
CCCCS(=O)(=O)NC1=NCN(CC)CN1	4	-2	-1.5%[38.3 µM]	0.7	-1.3	-1
CCSc1nnc(NC(=O)NCC(F)(F)F)s1	13	0	0.8%	0.3	1.2	-41
COc1ccccc1C(=O)Nc1ccc(OC(C)C(=O)N2CCOCC2)cc1 (stereo unspecified)	0	-7	-0.6%	-0.3	13	-3
COc1cccc(-c2csc(N3CCN(C(=O)Nc4ccc(Cl)cc4)CC3)n2)c1	0	·	7.1%	1.6	3.5	-3
S=C(Nc1ccccc1)Nc1cccc(Br)c1	3	·	1.0%	0.0	2.4	-7
CC(=O)Nc1ccc(S(=O)(=O)N/N=C/c2ccc(C)o2)cc1	-20	0	-1.1%	0.5	-1.9	-32
CCn1c(=O)cc(OCC(=O)NCCc2cccc(C)c2)c2ccccc21	-5	4	?	1.3	3.7	-4
Cc1ccc(NC(=O)Nc2ccc(Cl)cn2)cc1	6	·	1.3%	1.4	-4.4	-6
CN1CCN(S(=O)(=O)c2ccc(C(=O)Nc3ccccc3)cc2)CC1	1	0	-2.1%[38.3 µM]	0.0	-0.7	-9
CCOCCCNC(=O)c1oc2ccc3c(c2c1C)C(O)CC(C)(C)O3 (stereo unspecified)	6	2	-1.5%	2.7	2.2	6
COc1ccccc1N=Nc1[nH]c2ccc(C)cc2c1O	-14	-12	8.8%	0.5	-3.6	-29
O=C(c1ccc2c(c1)OCO2)C1CCCN(Cc2cn[nH]c2-c2ccccc2)C1 (stereo unspecified)	-3	-4	2.3%	0.6	-1.1	-7
Cc1nnc(SCC(=O)Nc2ccc(-c3nc4ccccc4s3)cc2)s1	0	13	-0.2%	-0.3	-1.3	6
CCOc1ccc(CSCCNC(=S)Nc2ccccc2)cc1	-19	-6	0.1%	-0.2	-2.3	-2
